Ecoli rRNA inh = inhibitors of bacterial rRNA selective over humanized ribosomes; AID 720706; GFP signal change (wild-type ribosome), % (concentration not given with the values); actives 1.6% (n = 350,000); E. coli WT GFP vs humanized-ribosome RFP mutants, fluorescence, 24 h; stronger effect = lower value; DMSO median 0, no signal -100;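 active = significant combined selectivity score with lowered wild-type GFP, culture density cut under 30%, mutant RFP and density less affected; inactive = any of these conditions unmet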; also: one replicate is shown; some compounds called inactive have numbers as strong as hits
FGF22 binding = shifts melting point of recombinant human FGF22. recombinant FGF22 thermal shift, SYPRO orange fluorescence; percent of sucrose octasulfate shift, DMSO zero. calls only at 9.99 µM. actives 1.5% (n = 340,000). AID 651658;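 active = melting point raised past a set limit in the mean and every replicate; three in four hits are not shown here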
Target sequence (Q9HCT0 whole entry, looked up): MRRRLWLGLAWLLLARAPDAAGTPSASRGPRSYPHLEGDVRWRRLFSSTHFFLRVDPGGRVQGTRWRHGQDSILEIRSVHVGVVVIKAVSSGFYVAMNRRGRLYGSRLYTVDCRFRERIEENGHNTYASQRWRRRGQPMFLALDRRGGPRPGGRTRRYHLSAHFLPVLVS
Ecoli rRNA inh OD600 = also measured in Ecoli rRNA inh; calls as there; OD600 change, %; measured here: OD600 growth;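 optical density of the mix in the first replicate; 0 = DMSO median and -100 = no signal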
Ecoli rRNA inh RFP = second read-out of Ecoli rRNA inh, no call of its own (marks repeat the call); RFP signal change, %; measured here: RFP humanized mutant strains;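 first replicate; 0 = DMSO median and -100 = no signal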
Numbers without * were called inactive; i = inactive; / = not tested or not shown. Some of the compounds tested; count on the stated rates, not on these rows.

item	SMILES	Ecoli rRNA inh	Ecoli rRNA inh OD600	Ecoli rRNA inh RFP	FGF22 binding
1	CCCNC(=O)C[C@H]1CC[C@@H]2[C@H](COC[C@@H](O)CN2C(=O)Nc2ccc(Cl)c(Cl)c2)O1	i	/	/	i
2	CC(=O)N(C)C[C@H]1Oc2cc(-c3cccnc3)ccc2S(=O)(=O)N([C@H](C)CO)C[C@@H]1C	-1	1	0.5	i
3	C[C@H](CO)N1C[C@H](C)[C@H](CN(C)C(=O)Nc2ccc(C(F)(F)F)cc2)Oc2c(NC(=O)Nc3ccc(C(F)(F)F)cc3)cccc2C1=O	1	9	-3.5	i
4	Cc1ccc(S(=O)(=O)Nc2ccc3c(c2)C(=O)N([C@@H](C)CO)C[C@H](C)[C@@H](CN(C)S(=O)(=O)c2ccc(C)cc2)OCCCC[C@@H](C)O3)cc1	4	4	-2.5	i
5	CC(C)(C)[S@](=O)N1Cc2cc(C(=O)NCc3ccccc3F)nc(-c3cccc(-c4ccncc4)c3)c2[C@@H]1CCO	-6	-20	24	i
6	C[C@@H]1CN([C@@H](C)CO)S(=O)(=O)c2ccc(-c3cccc(C#N)c3)cc2O[C@H]1CN(C)C(=O)c1cccnc1	-3	-3	-2.5	i
7	C[C@H]1CN([C@@H](C)CO)C(=O)Cc2cc(NC(=O)CCN3CCOCC3)ccc2O[C@@H]1CN(C)C(=O)Nc1ccccc1	6	9	-0.5	i
8	CCCNC(=O)N1CC[C@@H]2[C@H]1c1cc(-c3ccc(OC)cc3)ccc1N(C)[C@H]2CO	-5	-6	2.8	i
9	CC(C)CC#Cc1ccc([C@@H]2[C@@H](CO)N3CCCCN(S(=O)(=O)c4ccc(F)cc4)C[C@@H]23)cc1	5	3	-1.3	i
10	C[C@H](CO)N1C[C@H](C)[C@H](CN(C)Cc2ccc(Oc3ccccc3)cc2)Oc2c(NC(=O)Nc3ccc4c(c3)OCO4)cccc2C1=O	-1	-13	2.0	i
11	CO[C@@H]1CN(C)C(=O)c2cc(NS(C)(=O)=O)ccc2OC[C@H](C)N(Cc2ccccc2)C[C@@H]1C	0	-1	0.6	i
12	CN(C)C(=O)c1cccc(-c2ccc([C@H]3[C@@H](C#N)N(C(=O)C4CCC4)[C@H]3CO)cc2)c1	2	2	3.0	i
13	C[C@H](CO)N1C[C@H](C)[C@@H](CN(C)Cc2ccc(C(=O)O)cc2)Oc2ccc(NS(=O)(=O)c3ccccc3)cc2C1=O	-7	3	-2.4	i
14	O=C(C1CCCCC1)N1[C@H](CO)[C@H]2c3ccccc3N(S(=O)(=O)c3ccccc3)C[C@H]21	-5	-9	4.7	i
15	CCC(=O)N(C)C[C@H]1Oc2cc(-c3ccc(C)cc3)ccc2S(=O)(=O)N([C@H](C)CO)C[C@@H]1C	-5	-9	4.6	i
16	C[C@@H]1CN([C@H](C)CO)S(=O)(=O)c2ccc(C#CC(C)(C)O)cc2O[C@@H]1CN(C)C	4	1	-1.8	i
17	CN(C)c1ccc2c(c1)[C@@H]1C[C@@H](CC(=O)NCc3ccc(-c4ccccc4)cc3)O[C@@H](CO)[C@@H]1O2	-11	-6	3.3	i
18	C[C@@H]1CN([C@H](C)CO)C(=O)c2cccc(NS(=O)(=O)c3cccs3)c2O[C@H]1CN(C)C(=O)NC1CCCCC1	0	-1	2.5	i
19	CC(C)NC(=O)N(C)C[C@H]1Oc2ccc(NC(=O)CCC(F)(F)F)cc2CC(=O)N([C@@H](C)CO)C[C@@H]1C	5	1	1.2	i
20	N#C[C@@H]1[C@H](c2ccccc2)[C@H](CO)N1C(=O)Cc1ccccc1	1	15	1.4	i

Limited to Ecoli rRNA inh and FGF22 binding, for 7 of the compounds above:
No. | canonical_smiles | Ecoli rRNA inh | FGF22 binding
3 | C[C@H](CO)N1C[C@H](C)[C@H](CN(C)C(=O)Nc2ccc(C(F)(F)F)cc2)Oc2c(NC(=O)Nc3ccc(C(F)(F)F)cc3)cccc2C1=O | 1 | i
6 | C[C@@H]1CN([C@@H](C)CO)S(=O)(=O)c2ccc(-c3cccc(C#N)c3)cc2O[C@H]1CN(C)C(=O)c1cccnc1 | -3 | i
1 | CCCNC(=O)C[C@H]1CC[C@@H]2[C@H](COC[C@@H](O)CN2C(=O)Nc2ccc(Cl)c(Cl)c2)O1 | i | i
7 | C[C@H]1CN([C@@H](C)CO)C(=O)Cc2cc(NC(=O)CCN3CCOCC3)ccc2O[C@@H]1CN(C)C(=O)Nc1ccccc1 | 6 | i
13 | C[C@H](CO)N1C[C@H](C)[C@@H](CN(C)Cc2ccc(C(=O)O)cc2)Oc2ccc(NS(=O)(=O)c3ccccc3)cc2C1=O | -7 | i
17 | CN(C)c1ccc2c(c1)[C@@H]1C[C@@H](CC(=O)NCc3ccc(-c4ccccc4)cc3)O[C@@H](CO)[C@@H]1O2 | -11 | i
20 | N#C[C@@H]1[C@H](c2ccccc2)[C@H](CO)N1C(=O)Cc1ccccc1 | 1 | i

(next part)
item	SMILES	Ecoli rRNA inh	Ecoli rRNA inh OD600	Ecoli rRNA inh RFP	FGF22 binding
21	COc1ccc(-c2cc(=O)c3cccc(CC(=O)O)c3o2)cc1	4	1	2.1	i
22	O=C(Nc1cccc(F)c1)N1CCCCN2[C@H](CO)[C@@H](c3ccc(C#Cc4cccnc4)cc3)[C@H]2C1	-14	-46	8.4	i
23	C[C@H]1CN([C@@H](C)CO)C(=O)c2cccc(NC(=O)NC3CCCCC3)c2O[C@@H]1CN(C)C(=O)NC1CCCCC1	0	-5	-1.9	i
24	O=C(C1CCOCC1)N1CC(=O)N2[C@H](C1)[C@H](c1ccc(C#CC3CCCCC3)cc1)[C@@H]2CO	1	4	1.2	i
25	CO[C@@H]1CN(C)C(=O)c2cc(NC(=O)NC3CCCCC3)ccc2OC[C@@H](C)N(CC2CC2)C[C@@H]1C	1	5	-0.1	i
26	C[C@@H]1CN([C@@H](C)CO)C(=O)c2cc(NS(=O)(=O)c3ccc(F)cc3)ccc2O[C@@H](C)CCCCO[C@@H]1CN(C)Cc1ccc(C(=O)O)cc1	-3	-5	-2.9	i
27	N#C[C@H]1[C@@H](c2ccccc2-c2ccc(F)cc2)[C@@H](CO)N1C(=O)Cc1cccnc1	1	-5	-0.1	i
28	Cc1ccc(S(=O)(=O)N(C)C[C@H]2OCc3ccccc3-c3ccccc3C(=O)N([C@@H](C)CO)C[C@H]2C)cc1	1	-7	8.7	i
29	Cc1cc(C(=O)Nc2cccc3c2O[C@H](CN(C)S(=O)(=O)c2ccccc2)[C@@H](C)CN([C@H](C)CO)C3=O)n(C)n1	-1	-11	1.4	i
30	C[C@H](NC(=O)C[C@@H]1C=C[C@@H](NC(=O)CN2CCOCC2)[C@H](CO)O1)c1ccccc1	1	-3	-0.5	i
31	O=C(c1cnccn1)N1CC(=O)N2[C@H](CO)[C@H](c3ccc(-c4cccc(F)c4)cc3)[C@@H]2C1	-2	9	-1.5	i
32	C[C@@H]1CCCCO[C@H](CN(C)C(=O)c2ccncc2)[C@H](C)CN([C@H](C)CO)C(=O)c2cc(NC(=O)c3ccccc3)ccc2O1	1	8	-1.1	i
33	COc1ccc(S(=O)(=O)Nc2ccc3c(c2)C(=O)N([C@H](C)CO)C[C@@H](C)[C@@H](CN(C)Cc2ccccc2)OCCCC[C@@H](C)O3)cc1	2	-4	6.5	i
34	CCCC(=O)Nc1ccc2c(c1)C(=O)N(C)C[C@@H](OC)[C@H](C)CN(S(=O)(=O)c1cn(C)cn1)[C@@H](C)CO2	2	2	-2.7	i
35	CCN1[C@@H]2Cn3c(ccc(-c4ccccc4OC)c3=O)[C@H]1[C@@H](C(=O)N[C@@H](C)c1ccccc1)[C@@H]2CO	1	1	2.7	i
36	CCNC(=O)C[C@@H]1CC[C@H]2[C@@H](COc3ccc(NS(=O)(=O)c4ccccc4C)cc3C(=O)N2C)O1	2	12	-3.4	i
37	COCC(=O)N1C[C@@H](C)[C@@H](OC)CN(C)C(=O)c2ccc(NC(=O)c3cc(C)on3)cc2OC[C@H]1C	1	-3	-0.1	i
38	CO[C@@H]1CC[C@@H]2CCN(C)C(=O)[C@H](C)N(C)C(=O)c3cccc(C#N)c3OC[C@@H]1O2	10	17	2.2	i
39	CC(=O)N[C@@H]1CC[C@@H](CCNC(=O)C2CCCC2)O[C@@H]1CO	1	1	1.8	i
40	C[C@@H]1CN([C@@H](C)CO)C(=O)c2cc(NC(=O)CCCCCC(=O)Nc3ccccc3N)ccc2O[C@@H]1CN(C)Cc1ccc2c(c1)OCO2	2	4	3.9	i
41	C[C@@H](NC(=O)C[C@@H]1CC[C@@H](NC(=O)CN2CCOCC2)[C@@H](CO)O1)c1ccccc1	-1	4	0.9	i
42	CCCNC(=O)N1[C@H](C#N)[C@@H](c2ccccc2-c2ccc(F)cc2)[C@@H]1CO	-3	-10	-4.7	i
43	C[C@@H]1CN([C@H](C)CO)C(=O)c2cc(C#CCc3ccccc3)cnc2O[C@H]1CN(C)C(=O)C1CCOCC1	0	-3	-0.5	i
44	C[C@H]1CN([C@@H](C)CO)C(=O)c2cc(NC(=O)Cc3cn(C)c4ccccc34)ccc2O[C@H]1CN(C)C(=O)Nc1ccc(C(F)(F)F)cc1	0	-3	1.3	i
45	O=C(C1CC1)N1C[C@H]2[C@@H](c3ccccc31)[C@H](CO)N2C(=O)Nc1cccc(F)c1	2	1	-0.4	i
46	C/C=C/c1cnc2c(c1)C(=O)N([C@@H](C)CO)C[C@H](C)[C@@H](CN(C)CC1CCCC1)O2	3	0	0.0	i
47	CS(=O)(=O)N1[C@H](C#N)[C@@H](c2ccc(C#CC3CCCC3)cc2)[C@@H]1CO	-60	-70	-9.2	i
48	CC=Cc1ccc2n(c1=O)C[C@@H]1[C@@H](CO)[C@H](C(=O)NCC(F)(F)F)[C@H]2N1C(=O)C1CC1 (mixture of isomers)	0	4	-3.7	i
49	COc1ccc(NC(=O)Nc2ccc3c(c2)C(=O)N([C@H](C)CO)C[C@H](C)[C@H](CN(C)S(=O)(=O)c2cn(C)cn2)O3)cc1	0	5	-0.7	i
50	CCC(=O)N1CCCCN2[C@@H](CO)[C@@H](c3ccc(C#Cc4ccccc4)cc3)[C@@H]2C1	-21	-59	6.2	i
51	CO[C@@H]1CN(C)C(=O)c2cc(NS(=O)(=O)c3ccccc3F)ccc2OC[C@@H](C)N(S(C)(=O)=O)C[C@H]1C	0	-3	0.4	i
52	O=C(C1CCCC1)N1[C@@H](CO)[C@@H]2c3ccccc3N(S(=O)(=O)c3ccccc3)C[C@@H]21	-11	-13	1.4	i
53	Cc1ccc(S(=O)(=O)Nc2ccc3c(c2)CC(=O)N([C@@H](C)CO)C[C@@H](C)[C@@H](CN(C)C(=O)NC(C)C)O3)cc1	1	1	-0.4	i
54	CCNC(=O)[C@H]1[C@H](CO)[C@H]2Cn3c(ccc(-c4ccc(F)cc4)c3=O)[C@@H]1N2Cc1ccccc1F	-2	5	4.3	i
55	CN1c2ccc(C#Cc3cccnc3)cc2[C@@H]2[C@@H](CCN2C(=O)CN2CCOCC2)[C@H]1CO	8	30	0.2	i
56	COc1ccc(S(=O)(=O)N(C)C[C@@H]2Oc3c(NC(=O)C4CCCCC4)cccc3C(=O)N([C@H](C)CO)C[C@@H]2C)cc1	-2	-6	-1.4	i
57	COCc1cn(CC[C@@H]2CC[C@H](NC(=O)Nc3ccccc3)[C@H](CO)O2)nn1	0	3	-3.2	i
58	C[C@@H]1CN([C@H](C)CO)S(=O)(=O)c2ccc(/C=C/c3ccccc3)cc2O[C@H]1CN(C)C(=O)NC1CCCCC1	0	-5	0.0	i
59	COC(=O)C[C@@H]1CC[C@@H]2[C@H](COC[C@@H](O)CN2S(=O)(=O)c2ccc(F)cc2)O1	2	8	-0.7	i
60	O=C(NCc1ccc(F)cc1)[C@@H]1[C@@H](CO)[C@@H]2Cn3c(cccc3=O)[C@H]1N2Cc1cccnc1	2	5	-0.7	i
61	CO[C@H]1CN(C)C(=O)c2cc(NC(=O)Cc3ccccc3)ccc2OC[C@@H](C)N(C(=O)c2ccccc2F)C[C@@H]1C	1	0	-3.8	i
62	COCC(=O)N1[C@H](CO)[C@@H](c2ccccc2)[C@H]1CNC(=O)c1ccccn1	6	12	-1.3	i
63	CN(c1cccnc1)c1ccc(NC(=O)Cc2cn(Cc3ccccc3)c3ccccc23)cc1Br	-11	-4	2.5	i
64	C[C@@H]1CN([C@H](C)CO)C(=O)c2cccc(NS(=O)(=O)c3cccs3)c2O[C@@H]1CN(C)Cc1ccc(-c2ccccc2)cc1	-1	-3	2.9	i

Three entries picked at random from those above:
item	SMILES	Ecoli rRNA inh	Ecoli rRNA inh OD600	Ecoli rRNA inh RFP	FGF22 binding
17	CN(C)c1ccc2c(c1)[C@@H]1C[C@@H](CC(=O)NCc3ccc(-c4ccccc4)cc3)O[C@@H](CO)[C@@H]1O2	-11	-6	3.3	i
43	C[C@@H]1CN([C@H](C)CO)C(=O)c2cc(C#CCc3ccccc3)cnc2O[C@H]1CN(C)C(=O)C1CCOCC1	0	-3	-0.5	i
6	C[C@@H]1CN([C@@H](C)CO)S(=O)(=O)c2ccc(-c3cccc(C#N)c3)cc2O[C@H]1CN(C)C(=O)c1cccnc1	-3	-3	-2.5	i
